High-throughput results (PubChem BioAssay)
HSD17B inh: inhibitors of human HSD17B10 dehydrogenase | recombinant HSD17B10, NADH fluorescence kinetic; many of its hits are not listed in these tables | Potency, µM (doses to about 57.1 µM), for inactives: top-dose activity change, negative = inhibition, most hits filed as inhibitors | Q99714 | hit rate 7.6% among 75,000; active = well fitted inhibition curve with a large enough effect; inconclusive = small, poorly fitted or top-dose-only effect; inactive = no such curve, though single readings can be large or run the other way;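 also: the protocol describes HADH2 (HSD17B10) and not the HSD17B4 of the title; nearly all actives have a fitted effect of over 70% in size; most hits overshoot -100% by far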
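20 nM HADH2, pH 9.0 Tris/Tween; cpd preinc 15 min RT; start w/ 1 mM NAD+ + 90 uM b-hydroxybutyryl-CoA; kinetic fluor ex360/em450 q30s x 4 min; delta last-first.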
The depositor's hits bear a star; ? = inconclusive; [ ] = another dose, or the depositor's remark. % is scaled to controls: 0 for no effect and ±100 for the full control effect; potency is read from the fitted curve at half-maximal effect. These rows are one share of the data, so the mix of outcomes need not match the whole.

SMILES | HSD17B inh
CC1(C(=O)O)Sc2[nH]c(=O)sc2C2c3ccccc3OC(=O)C21 (stereo unspecified) | ?
CC1Cc2ccccc2N1c1ncnc2c1nnn2Cc1ccccc1 (stereo unspecified) | ?
O=C(COc1ccccc1Cl)NCCCN1CCOCC1 | -2.0%
O=C(c1cccc(F)c1)N1CCC2(CCN(Cc3nccs3)CC2)CC1 | -1.5%
Cc1occc1C(=O)NC1CCCCCC1 | 0.7%
Cc1noc(C)c1COC(=O)C1CC(O)CN1S(=O)(=O)c1ccc(Cl)cc1 (stereo unspecified) | -14.2%
CC1(C)Cc2c(C#N)c(NCCCO)nc(-c3ccccc3)c2CO1 | 25.1µM*
COc1ccc(-n2nc(C(=O)NCC(=O)NCc3ccco3)c3ccccc3c2=O)cc1 | -2.0%
CCOC(=O)c1c(N)sc(C(N)=O)c1C | -11.7%
CCOC(=O)c1cc2c(N)c(C(=O)c3cc(C#N)c(SC)nc3C)sc2nc1C | 15.5%
COc1ccc(C2C(C(=O)N3CCN(c4ccccc4F)CC3)c3ccccc3C(=O)N2C)cc1 (stereo unspecified) | -12.4%
CCn1c(C)cc2c(c1=O)C(c1ccccc1Br)C(C#N)=C(N)O2 (stereo unspecified) | 2.5%
COc1ccc(-c2nnc(SCc3nnc(-c4ccc(Cl)cc4)o3)n2-c2ccccc2)cc1 | -8.0%
CC(C)n1c(SCCCc2ccccc2)nc2c1c(=O)[nH]c(=O)n2C | -11.8%
COC(=O)c1ccccc1NC(=O)C(C)NS(=O)(=O)c1ccc(OC)cc1 (stereo unspecified) | 25.1µM*
Cc1ccc(S(=O)(=O)NCCCOC(=O)Nc2ccncc2)cc1 | 13.5%
CC(CCc1ccco1)NC(=O)Cn1nc(Cc2ccncc2)c2ccccc2c1=O (stereo unspecified) | 0.6%
CC(C)CCCC(C)C1CCC2C3CC=C4CC(=O)CC[C@@]4(C)C3CC[C@@]12C (stereo partly specified) | -10.8%
COc1ccc(C2N(c3cc(Cl)ccc3OC)C(=O)C3CCCN32)cc1 (stereo unspecified) | 8.6%
Cc1ccc(CCNc2ccccc2)c[n+]1[O-] | 6.1%
Cc1nc2cc(O)ccc2n1C | 5.1%
c1coc(CNc2ncnc3sc4c(c23)CCCCC4)c1 | -12.5%
O=c1cc(O)sc2ccccc12 | 0.7%
Cc1nc(SCC(=O)NCc2ccco2)c2c3c(sc2n1)CCCC3 | -8.6%
O=c1nc(-c2ccccc2)cc(-c2ccccc2)[nH]1 | 25.1µM*
Cc1ccc(CCN2CC(C(=O)NC3CCCC3)CC2=O)cc1 (stereo unspecified) | 3.4%
Cc1ccccc1OCc1nnc(SCC(=O)Nc2ccc3c(c2)oc2ccccc23)n1C | -1.2%
CC(=O)N1C2(C=CC1(C)C(=O)NCc1ccc(C)o1)CCCCC2 (stereo unspecified) | 2.5%
O=C(NCC1CCC(C(=O)O)CC1)c1cccnc1 (stereo unspecified) | 7.4%
CC(C)C[C@H](NC(=O)[C@@H](O)[C@H](N)Cc1ccccc1)C(=O)O | 13.9%
CCCNC(=O)OC[C@H]1O[C@@H](CCO/N=C\[C@@H](NS(=O)(=O)c2ccc(C)cc2)[C@H](C)/C=C\CC(=O)OC)C=C[C@@H]1Oc1ccc(OC)cc1 | 4.9%[11.4 µM]
CCOC(=O)c1cccc(S(=O)(=O)N(CCO)Cc2cc3cc(OC)c(OC)cc3[nH]c2=O)c1 | -10.7%
Cc1ccnc(NC(=O)Nc2ccc(F)cc2)c1 | 3.7%
O=C(Nc1ccc(N2CCN(Cc3ccccc3)CC2)cc1)c1cccnc1 | 5.2%
CN=C1CC(C)(C)CC(=O)/C1=C(/O)CCC(=O)NC | 4.1%
O=C1NCCCCC1NC1CC(=O)N(c2ccccc2)C1=O (stereo unspecified) | 2.6%
O=c1c(O)c(-c2ccccc2)oc2ccc3occc3c12 | ?
N#Cc1cn(-c2ccccc2)nc1-c1cc2ccccc2oc1=O | 15.8µM*
CC1CCC(NC(=O)CN2CCC(n3nnc4cc(F)ccc43)CC2)CC1 (stereo unspecified) | 8.3%
Cc1cc(C)n2nc(S(=O)(=O)N(CC(C)C)CC(C)C)nc2n1 | 19.1%
CCOC(=O)C1CCN(c2c(NCc3ccc(C(=O)O)cc3)c(=O)c2=O)CC1 | 2.2%
CC1(C)Cc2nc3oc4c(NCc5ccccc5)ncnc4c3cc2CO1 | 25.1µM*
Brc1ccccc1C1=Nn2c(nnc2-c2ccccc2)SC1 | ?
CCN(Cc1ccccc1)C(=O)C1CCN(Cc2ccc(OC)c(OC)c2OC)CC1 | 3.6%
CCOc1ccc(OCC)c(NC(=O)C2CCN(c3ncccn3)CC2)c1 | -4.7%

Random excerpt: 4 entries already listed, in no set order.
SMILES | HSD17B inh
Cc1ccccc1OCc1nnc(SCC(=O)Nc2ccc3c(c2)oc2ccccc23)n1C | -1.2%
CCN(Cc1ccccc1)C(=O)C1CCN(Cc2ccc(OC)c(OC)c2OC)CC1 | 3.6%
CC1(C(=O)O)Sc2[nH]c(=O)sc2C2c3ccccc3OC(=O)C21 (stereo unspecified) | ?
O=c1nc(-c2ccccc2)cc(-c2ccccc2)[nH]1 | 25.1µM*

Next records follow.
SMILES | HSD17B inh
CC(=O)NCCn1c(C)cc2ccccc21 | 7.9%
CCOC(=O)N1CCN(c2cc(=O)n(C3CCCCC3)c(=O)[nH]2)CC1 | 10.6%
CC(=O)Nc1nc(C)c(S(N)(=O)=O)s1 | -3.5%
Cn1cccc1C(=O)N1CCC2(CCN(C(=O)Nc3cccc(F)c3)CC2)CC1 | -4.6%
Cn1c(SCc2nc3ccccc3[nH]2)nnc1-c1cccnc1 | -5.8%
O=C(O)c1ccc(Cc2ccccc2C(=O)O)cc1 | 2.1%[11.4 µM]
C/C(Sc1nnc(Cc2ccccc2)o1)=C(/O)c1ccccc1 | 0.2%
OCc1nc(CO)n(Cc2ccccc2)n1 | 0.2%
CC1(c2ccccc2)NC(=O)N(CC(=O)Nc2cccc(C#N)c2)C1=O (stereo unspecified) | 3.0%
CCC(=O)N1CCc2cc(Br)cc(S(=O)(=O)CC(=O)OC)c21 | -11.6%
CCN(CC)CCn1c(-c2ccccc2)nc2c(NC3CCCCC3)nc(C)nc21 | 25.1µM*
COc1cc(S(=O)(=O)N2CCCCCC2)c(OC)cc1Br | 5.1%
O=C(CN1C(=O)CC(c2ccco2)Sc2ccccc21)Nc1ccccc1F (stereo unspecified) | -19.1%
O=C(NCc1n[nH]c(=S)n1-c1ccc(F)cc1)c1ccco1 | 1.7%
Cn1nc(OCc2ccccc2)ccc1=O | 3.3%
COc1cccc(C(=O)N(Cc2nc(-c3ccc(C)cc3)no2)C(C)C)c1 | 1.8%
COc1ccc2[nH]c3cc4c(=O)c5cc(OC)ccc5[nH]c4cc3c(=O)c2c1 | 3.7%[11.4 µM]
CCOC(=O)N1CCN(S(=O)(=O)c2cc(Br)cnc2N)CC1 | ?
Cc1cc(C(=O)Nc2ccc(S(=O)(=O)Nc3nccs3)cc2)c(C)o1 | -0.1%
CCc1ccc(-c2nc(CN3CCC(C(=O)NCc4ccccc4OC)CC3)c(C)o2)cc1 | -6.1%
COc1ccc(C(c2sc3nc(C)nn3c2O)N2CCN(Cc3ccccc3)CC2)cc1OC (stereo unspecified) | 8.4%
COC(=O)[C@@]1(Cc2ccc(F)cc2)[C@H]2c3cc(C(=O)N(C)C)n(CCF)c3C[C@H]2CN1C(=O)c1ccccc1 | 8.8%
CC(C)CN1CCCC2(CCN(C(=O)c3ccco3)CC2)C1 | 1.7%
CC1Cc2cc(/C(O)=C3\C(=O)C(=O)N(CCN(C)C)C3c3ccccc3F)ccc2O1 (stereo unspecified) | 1.0%
N#CCCNc1ccc(OCCC#N)cc1 | 8.3%
Cc1ccc(-n2c(CSc3nc(C)cc(C)n3)nnc2SCC(=O)N2CCCC2)cc1 | -3.6%
Cc1ccc(-n2nnnc2SCC(=O)N2CCc3ccccc3C2)cc1 | -5.4%
CCOC(=O)N1CCN(C(=O)C2CCC(=O)N2C(C)C)CC1 (stereo unspecified) | 3.3%
Oc1ccc(O)c2c(O)cccc12 | 12.6µM*
COc1ccc(S(=O)(=O)N2CCC(C(=O)NCC(c3cccs3)N(C)C)CC2)cc1 (stereo unspecified) | 5.8%
O=c1c(CCc2ccccc2)nc2cnc(Oc3ccccc3)nc2n1C[C@H]1CCCO1 | -18.5%
Cc1noc(C)c1CSc1nnc(C)c(=O)[nH]1 | 5.3%
CCOC(=O)c1ccc(S(=O)(=O)NC2CCCCCCC2)n1C | 1.2%
COC(=O)c1ccc(/C=N\n2c(C)nnc2C)cc1 | 7.9%
CCCn1c(N)c(C(c2ccc(C(=O)OC)cc2)N2CCN(c3ccccc3)CC2)c(=O)[nH]c1=O (stereo unspecified) | 0.2%
Clc1ccc(Oc2nc(N3CCOCC3)nc(N3CCOCC3)n2)c(C2CCCCC2)c1 | -0.9%
CC(OC1=CC(=O)CCC1)C(=O)c1ccccc1 (stereo unspecified) | 4.7%
O=C(NC1CCCCC1)N(CCN1CCOCC1)Cc1cc2cc3c(cc2[nH]c1=O)OCCO3 | 25.1µM*
COC(=O)C/C=C\[C@@H](C)[C@@H](/C=N\O[C@@H](C)c1cc(-c2c(C)cc(C)cc2C)no1)NS(=O)(=O)c1ccc(C)cc1 | 2.4%[11.4 µM]
CN(C)c1oc(-c2ccc(OCc3ccccc3)cc2)nc1C#N | 31.6µM*
N#CC12CCCCC1CC1CCCCC1(C#N)N2CCO (stereo unspecified) | 4.6%
CC(C)Nc1nc(C#N)nc(NC(C)C)n1 | -3.9%
COc1ccccc1NC(=O)Cn1cnc2c(cnn2-c2ccccc2)c1=O | -4.7%
CN(C)c1ncc2nc(-c3ccc(F)cc3)c(=O)n(Cc3ccc(F)cc3)c2n1 | 3.98µM*
Cc1ccc(-c2csc(NC(=O)CSc3ncn(-c4ccccc4)n3)n2)cc1 | ?

Shown as labelled records: 4 of the compounds above
CC(OC1=CC(=O)CCC1)C(=O)c1ccccc1 (stereo unspecified)
  HSD17B inh: 4.7%

Cc1ccc(-c2csc(NC(=O)CSc3ncn(-c4ccccc4)n3)n2)cc1
  HSD17B inh: ?

CN(C)c1oc(-c2ccc(OCc3ccccc3)cc2)nc1C#N
  HSD17B inh: 31.6µM*

CN(C)c1ncc2nc(-c3ccc(F)cc3)c(=O)n(Cc3ccc(F)cc3)c2n1
  HSD17B inh: 3.98µM*

Other compounds
SMILES | HSD17B inh
CCOC(=O)CCCN | 3.5%[11.4 µM]
COc1ccc(N2CCN(C(=O)CSc3nnc(C)c(=O)[nH]3)CC2)cc1 | -26.0%
O=C(CSc1nnc(Cc2csc(Nc3cccc(Cl)c3)n2)o1)N1CCc2ccccc21 | -0.4%
CCOC(=O)c1c(CN2CCN(C)CC2)oc2ccc(O)cc12 | 5.9%
COc1ccccc1NC(=O)NCCN1C(=O)C2C3C=CC(C3)C2C1=O (stereo unspecified) | 0.1%
Cc1c(NC(=O)c2cc3nc(-c4ccccc4)cc(C)n3n2)c(=O)n(-c2ccccc2)n1C | 39.8µM*
CCCCCOc1ccc(OC(=O)c2ccncc2)cc1 | 0.6%
COC(=O)[C@@]1(Cc2ccc(OC)cc2)[C@H]2c3cc(C(=O)N4CCCC4)n(Cc4ccc(C)c(F)c4F)c3C[C@H]2CN1C(=O)c1ccccc1 | 18.1%
COc1ccccc1NC(=O)C1CC(=O)N(c2ccc(F)cc2)C1 (stereo unspecified) | 6.8%
O=S(=O)(NCCc1ccncc1)c1ccc(S(=O)(=O)N2CCCCCC2)cc1 | 5.2%
CC1(C)C(c2cccs2)=[N+]([O-])C2(CCCCC/C2=N\O)N1O (stereo unspecified) | 0.3%
CC(=O)Nc1ccc(OC(=O)C(CCS(C)(=O)=O)N2C(=O)c3ccccc3C2=O)cc1 (stereo unspecified) | 3.3%
CCOC(=O)CSc1nc2cc(OC)ccc2cc1C#N | 25.1µM*
Fc1ccc(-n2c(Cc3ccccc3)nnc2SCc2nc(-c3cccs3)no2)cc1 | 2.6%
CCOc1ccc(CCNS(=O)(=O)c2c(C)n[nH]c2C)cc1OCC | 8.7%
Cc1ccccc1-c1nc(CN2CCC(C(=O)NCCCN3CCCC3)CC2)c(C)o1 | 24.6%
Cn1c(=O)c2cc(S(=O)(=O)NCCC(=O)NCc3ccccc3Cl)ccc2n(C)c1=O | -6.0%
N#CC(c1nc2ccccc2nc1N1CCCCC1)S(=O)(=O)c1ccc(Cl)cc1 (stereo unspecified) | -0.5%
COc1cccc([C@H]2Oc3ccc(OC)cc3/C(=N\OC[C@@H](O)[C@@H]3O[C@@H]4OC(C)(C)O[C@@H]4[C@H]3O)[C@@H]2O)c1 | -0.8%[11.4 µM]
Cc1ccc2cc(-c3noc(C4CCCO4)n3)c(=O)[nH]c2c1 (stereo unspecified) | 31.6µM*
CCN1C(=O)C(Cc2nc3ccccc3c(=O)n2C)c2ccccc21 (stereo unspecified) | 5.6%
CN=C1SC(CC(=O)Nc2sc3c(c2C#N)CCCC3)C(=O)N1C (stereo unspecified) | 0.5%
Cc1ccc(Cl)cc1N1CCN(S(=O)(=O)c2cccc(S(=O)(=O)N3CCCC3)c2)CC1 | 7.7%
CCSC1=C(C#N)C(=O)n2c1cc1c2CCCC1 | -25.6%
CCCCCCN(C(=O)CCCCCN1C(=O)NC(c2ccc([N+](=O)[O-])cc2)C(C(=O)OCc2ccccc2)=C1C)C(C(=O)NCCCC)c1ccc(OCC(=O)OC)c(C(=O)OC)c1 (stereo unspecified) | -3.8%
CC(C)CC(c1nnnn1CC1CCCO1)N1CCN(Cc2ccc3c(c2)OCO3)CC1 (stereo unspecified) | 3.9%
C=CCn1c(N)cc(=O)nc1SCC(=O)N1CCN(c2ccc(F)cc2)CC1 | 14.0%
